Screens: PubChem, several laboratories
PrP 5UTR inh: inhibition of PrP 5' UTR reporter expression; cell-based PrP 5' UTR mRNA reporter, plate reader; inhibition, % (no concentration beside the values); 0.35% of 340,000 active;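 active = every replicate at 50% or more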;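 note: 0 = median of the neutral control wells; tested in H4 reporter cells; numbers are from one replicate; inactives centre near -14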
ugtP null kill: kills S. aureus RN4220 lacking UgtP; 0.54% of 330,000 active; growth inhibition, % (concentration not given with the values); S. aureus RN4220 ugtP deletion, OD600 growth, 16 h; some inactives read as strong as hits;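 active = z-score under -3 and OD600 up to 0.15 on both plates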;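 note: plate controls were untreated wells for no effect and antibiotic for full effect; wells of about 80 µL received 100 nL stock; the first replicate is given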
Autofluor counter: counter-screen for toxin protease inhibitors: compound fluorescence; compound autofluorescence counterscreen, microsphere flow cytometry; hits give high values; fluorescence intensity (test concentration not listed); 3.1% of 360,000 active;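 active = at least 3 SD above the mean of all compounds, about 16000 in these data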;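 note: 100 nL of 1 mM stock went into each well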
Mtb hypoxia inh: Mtb hypoxia fluorescent reporter inhibition; fluorescence inhibition, % (concentration not given with the values); 0.1% of 300,000 active; M. tuberculosis hypoxia-regulated fluorescent reporter, fluorescence;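 active = 35 to 45% if threefold the growth effect, above 45% if 1.5-fold the growth effect; inactive = the rest, general growth blockers included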;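 note: wells of about 50 µL received 100 nL stock; 0% = vehicle wells and 100% = reference inhibitor wells; whole bacteria with a GFP reporter of the hypoxia response; strong numbers were not always called active; many hits fall short of the cut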
RN4220 kill: kills Staphylococcus aureus RN4220; S. aureus RN4220 growth, OD600, 16 h; inhibition, % (concentration not given with the values); 0.33% of 330,000 active;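 active = z-score of -3 or lower and OD600 up to 0.18 on both plates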;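 note: plate controls were untreated cells for no effect and reference antibiotic for full effect; stock transfer was 100 nL into about 80 µL; one replicate is shown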
BJeLR lethal: kills HRASV12-expressing BJeLR cells. BJeLR (HRASV12) viability, CellTiter-Glo ATP luminescence, 48 h; reference of the scale not given here. inhibition, % (no concentration beside the values). 0.17% of 300,000 active. AID 1554;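 active = replicate mean above 50%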;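 note: 50 nL library stock added to about 25 µL; numbers are from one replicate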
Mtb hypoxia inh growth: also measured in Mtb hypoxia inh; calls as there; growth inhibition, %; measured here: M. tuberculosis growth (absorbance);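 0% = vehicle and 100% = reference antibiotic; read after six days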
* marks the source's active call; other numbers are inactive results; x = not tested or not shown.

Labels used below – A = PrP 5UTR inh; B = ugtP null kill; C = Autofluor counter; D = Mtb hypoxia inh; E = Mtb hypoxia inh growth; F = RN4220 kill; G = BJeLR lethal
> O=C(COC(=O)CCc1nc2ccccc2c(=O)[nH]1)NC1CCS(=O)(=O)C1 (configuration not stated)
  A: -4	B: -2	C: 4406	D: -12	E: -11	F: 0.9	G: 19

> CCC(=O)N1CCN(c2ccc(NC(=O)c3ccc4ccccc4c3)cc2)CC1
  A: -2	B: 0	C: 3719	D: -8	E: 5	F: -0.4	G: 0

> Cc1cccc(C)c1OCc1cc(C(=O)N2CCN(C3CCCC3)CC2)no1
  A: -25	B: 1	C: 5528	D: 4	E: 6	F: 0.5	G: -2

> CC1(C)Cc2c(sc(NC(=O)c3ccc4c(c3)OCCO4)c2C(N)=O)C(C)(C)N1
  A: -12	B: 16	C: 5684	D: 13	E: 7	F: 0.3	G: 13

> N#C/C(=C\c1ccc[nH]1)C(=O)c1ccccc1
  A: -17	B: -3	C: 4080	D: 1	E: 6	F: -0.3	G: 3

> CCn1c(CNC(=O)c2ccccc2OC)nnc1SCC(=O)c1ccc(F)cc1
  A: -12	B: 9	C: 3972	D: 16	E: 10	F: 3.7	G: 5

> CCOc1cc(/C=N/NC(=O)c2ccc(CN3CCOCC3)cc2)ccc1OCc1ccccc1
  A: -42	B: x	C: 10093	D: x	E: x	F: x	G: -5

> COCCCN1C(=O)C(=O)/C(=C(/O)c2ccc(OC)cc2)C1c1cccc(OC)c1 (configuration not stated)
  A: -6	B: x	C: 2839	D: x	E: x	F: x	G: 7

> Clc1ccccc1OCCn1ccnc1
  A: -32	B: 4	C: 20725*	D: 1	E: -4	F: 1.4	G: 10

> COc1ccc(CNC(=O)CC2C[C@H](C(=O)N3CCOCC3)[C@@]3(C)c4[nH]c5ccccc5c4CCN3C2=O)cc1OC (some centres not stated)
  A: -10	B: 1	C: 3989	D: -9	E: -12	F: 0.0	G: x

> COc1cc(OC)cc(-c2sc3ccc(OC)cc3c2-c2ccc(OCCN3CCOCC3)cc2)c1
  A: -12	B: 68	C: 3098	D: -3	E: 7	F: 2.7	G: x

> COc1cc2ccccc2cc1C(=O)NCCCN1CCOCC1
  A: -12	B: 3	C: x	D: 11	E: 9	F: 1.2	G: -6

> COc1ccc(NC(=O)CCN2C(=O)c3ccccc3C2=O)c(OC)c1
  A: -12	B: -4	C: 2907	D: 0	E: 3	F: -5.2	G: -2

> CC(C)C(NS(=O)(=O)c1cccc(C(F)(F)F)c1)C(=O)NCc1cccs1 (configuration not stated)
  A: -12	B: -3	C: 8750	D: 8	E: -1	F: 3.8	G: x

> COc1cccc(C2C3=C(CC(C)(C)CC3=O)Nc3cc4c(cc32)OCO4)c1 (configuration not stated)
  A: -11	B: 7	C: 6378	D: x	E: x	F: -4.6	G: -5

> CC(C)C(C(=O)NC1CCCC1)N(CC1CCCO1)C(=O)CNS(=O)(=O)c1ccc(F)cc1 (configuration not stated)
  A: -40	B: 4	C: 3887	D: 17	E: 5	F: 4.2	G: -13

> C/C(=N\NC(=S)Nc1c(C)cccc1C)c1cc2ccccc2o1
  A: -62	B: x	C: 4030	D: x	E: x	F: x	G: 9

> COC(=O)COc1cc(C)cc2oc(=O)c3c(c12)CCCC3
  A: -14	B: 3	C: 9490	D: 6	E: 1	F: 2.0	G: -5

> Cc1ccc(S(=O)(=O)N2CCOCC2)cc1-c1n[nH]c(=S)n1-c1ccccc1
  A: -9	B: 10	C: x	D: 8	E: 3	F: 6.8	G: x

> COc1ccc(-c2ccc(CCC(=O)O)n2CC2CCCO2)cc1 (configuration not stated)
  A: 1	B: 5	C: 2863	D: -8	E: 4	F: 7.8	G: -9

> S=c1[nH]nc(-c2ccccc2)n1/N=C/c1cccs1
  A: -42	B: x	C: 4965	D: x	E: x	F: x	G: 1

> CN1C(=O)C2(OCC(C)([N+](=O)[O-])CO2)c2ccccc21 (configuration not stated)
  A: -4	B: 2	C: 3019	D: 6	E: -1	F: 2.7	G: -12

> CC(C)(C)OC(=O)C[C@@H]1C/C=C\C[C@@H](CC(=O)N[C@H](CO)Cc2ccccc2)C(=O)NCCOC1=O
  A: -14	B: 6	C: 3944	D: 3	E: 8	F: 1.9	G: x

> O=C(COC(=O)c1cc(-c2ccncc2)nc2ccccc12)Nc1ccc2c(c1)OCO2
  A: x	B: -1	C: x	D: 4	E: 0	F: 0.7	G: -3

> Cc1cc(NC(=O)CSc2ccc(-c3ccccc3)nn2)no1
  A: 3	B: 3	C: 6941	D: 3	E: 0	F: 0.6	G: 6

> COc1ccc(-n2c(NCCN(C)C)nc3sc4c(c3c2=O)CCCCC4)cc1
  A: -25	B: 12	C: 22405*	D: 2	E: 14	F: -1.8	G: 1

> COC(OC)c1ccnc(-c2ccc(OC(=O)c3ccccc3)cc2)n1
  A: -32	B: 10	C: 4662	D: 12	E: 5	F: 5.7	G: -2

> O=C(CSCc1cccc(Br)c1)N/N=C/c1ccc2c(c1)OCO2
  A: -21	B: x	C: 4089	D: x	E: x	F: x	G: 1

> O=C(O)c1cc(-c2ccccc2Cl)n[nH]1
  A: -14	B: 1	C: 3617	D: x	E: x	F: 0.1	G: 8

> COc1ccc(CCC(C)Nc2cccc(F)c2)cc1 (configuration not stated)
  A: -24	B: 9	C: 10474	D: 5	E: 17	F: -1.2	G: -10

Molecules shown so far containing an NH in an aromatic ring, in the order listed:
Labels used below – A = PrP 5UTR inh; B = ugtP null kill; C = Autofluor counter; D = Mtb hypoxia inh; E = Mtb hypoxia inh growth; F = RN4220 kill; G = BJeLR lethal
> O=C(COC(=O)CCc1nc2ccccc2c(=O)[nH]1)NC1CCS(=O)(=O)C1 (configuration not stated)
  A: -4	B: -2	C: 4406	D: -12	E: -11	F: 0.9	G: 19

> N#C/C(=C\c1ccc[nH]1)C(=O)c1ccccc1
  A: -17	B: -3	C: 4080	D: 1	E: 6	F: -0.3	G: 3

> COc1ccc(CNC(=O)CC2C[C@H](C(=O)N3CCOCC3)[C@@]3(C)c4[nH]c5ccccc5c4CCN3C2=O)cc1OC (some centres not stated)
  A: -10	B: 1	C: 3989	D: -9	E: -12	F: 0.0	G: x

> Cc1ccc(S(=O)(=O)N2CCOCC2)cc1-c1n[nH]c(=S)n1-c1ccccc1
  A: -9	B: 10	C: x	D: 8	E: 3	F: 6.8	G: x

> S=c1[nH]nc(-c2ccccc2)n1/N=C/c1cccs1
  A: -42	B: x	C: 4965	D: x	E: x	F: x	G: 1

> O=C(O)c1cc(-c2ccccc2Cl)n[nH]1
  A: -14	B: 1	C: 3617	D: x	E: x	F: 0.1	G: 8

Later entries:
Labels used below – A = PrP 5UTR inh; B = ugtP null kill; C = Autofluor counter; D = Mtb hypoxia inh; E = Mtb hypoxia inh growth; F = RN4220 kill; G = BJeLR lethal
> Cc1cc(N/C(=N/S(=O)(=O)c2ccc(F)cc2)c2ccccc2)n(-c2ccccc2)n1
  A: -14	B: 0	C: 4309	D: -4	E: 5	F: 2.9	G: 1

> CNC(=S)NN(C)c1nc(C)cc(C)n1
  A: -18	B: 10	C: 2039	D: 2	E: 3	F: -0.3	G: -5

> O=C(O)C1Cc2ccccc2CN1S(=O)(=O)c1ccccc1 (configuration not stated)
  A: 2	B: 6	C: 4915	D: 0	E: 1	F: 5.1	G: -1

> Cc1ccc(S(=O)(=O)N2CCN(C(=O)CN3CCCC3)C2)cc1
  A: -13	B: -4	C: 2751	D: 12	E: 4	F: 7.5	G: -3

> Cc1ccc(CNC(=O)C2CCCCC2C(=O)O)cc1 (configuration not stated)
  A: -13	B: -1	C: 21599*	D: 6	E: 15	F: 6.3	G: -4

> CCc1ccccc1NC(=O)CSc1nnc([C@@H](N)Cc2c[nH]c3ccccc23)o1
  A: -3	B: -2	C: 9291	D: -1	E: 7	F: 2.3	G: 4

> Cc1ncn2cc(-c3ccc(Cl)cc3Cl)[nH]c(=O)c12
  A: 17	B: 1	C: 3906	D: 5	E: 6	F: -2.3	G: -1

> O=C(c1ccc(CS(=O)(=O)c2ccc(Br)cc2)o1)N1CCN(C2CCCCC2)CC1
  A: 7	B: 6	C: 5349	D: x	E: x	F: 2.0	G: -1

> COc1cc(OC)c(OC)cc1/C=C1\CCC(C2CCCC2)C1=O (configuration not stated)
  A: -29	B: 24	C: 3996	D: 8	E: 10	F: 8.5	G: 14

> CCN(CC(=O)Nc1ccc(S(=O)(=O)N2CCCCC2)cc1)Cc1ccccc1
  A: -2	B: 1	C: x	D: -2	E: -1	F: 0.9	G: -3

Structures listed so far containing a furan ring, fused or not, in the order listed:
Labels used below – A = PrP 5UTR inh; B = ugtP null kill; C = Autofluor counter; D = Mtb hypoxia inh; E = Mtb hypoxia inh growth; F = RN4220 kill; G = BJeLR lethal
> C/C(=N\NC(=S)Nc1c(C)cccc1C)c1cc2ccccc2o1
  A: -62	B: x	C: 4030	D: x	E: x	F: x	G: 9

> O=C(c1ccc(CS(=O)(=O)c2ccc(Br)cc2)o1)N1CCN(C2CCCCC2)CC1
  A: 7	B: 6	C: 5349	D: x	E: x	F: 2.0	G: -1

Next records follow:
Labels used below – A = PrP 5UTR inh; B = ugtP null kill; C = Autofluor counter; D = Mtb hypoxia inh; E = Mtb hypoxia inh growth; F = RN4220 kill; G = BJeLR lethal
> Cc1ccc(NC(=O)COC(=O)C2CC(=O)N(Cc3ccccc3)C2)cc1F (configuration not stated)
  A: 36	B: -6	C: 4334	D: 2	E: 14	F: -1.6	G: 2

> O=C(NCCN1CCCC1)c1ccc2c(c1)N(Cc1ccc(F)cc1)C(=O)c1ccccc1S2=O (configuration not stated)
  A: -6	B: x	C: 4759	D: x	E: x	F: x	G: -3

> C=C(C)c1cccc(C(C)(C)NC(=O)N2CCOCC2)c1
  A: -12	B: 1	C: 4097	D: 12	E: 7	F: -2.0	G: 29

> CCC(C)(C)n1nnnc1C(c1ccc(C)cc1)N(Cc1ccco1)Cc1cccs1 (configuration not stated)
  A: -5	B: 50	C: 2852	D: 11	E: 11	F: -0.6	G: -7

> Nc1cccc2c(=O)c3ccccc3[nH]c12
  A: -10	B: 4	C: 3691	D: 4	E: 8	F: 3.6	G: 6

> Cc1ccc(C(=O)NC(=S)NCc2cccnc2)cc1C
  A: 0	B: x	C: 3333	D: x	E: x	F: x	G: 5

> O=C(c1ccc2c(c1)OCCO2)C1CCN(S(=O)(=O)c2ccc(F)cc2)CC1
  A: 0	B: -1	C: 7680	D: 7	E: 1	F: 6.3	G: x

> COc1ccc2nc(NC(=O)C3CCCN(S(=O)(=O)c4cccc5nonc45)C3)sc2c1 (configuration not stated)
  A: -18	B: 3	C: 3749	D: x	E: x	F: -0.6	G: 3

> COc1ccccc1CN1[C@@H](CC(=O)O)c2cc(F)ccc2S1(=O)=O
  A: -10	B: x	C: 3083	D: x	E: x	F: x	G: 9

> Cn1cc(C(=O)N/N=C/c2c(O)ccc3ccccc23)ccc1=O
  A: 39	B: x	C: 3301	D: x	E: x	F: x	G: 24

> COc1cc(CC(=O)OCC(=O)NC2CCCCC2C)cc(OC)c1OC (configuration not stated)
  A: -19	B: 7	C: 3074	D: 12	E: 3	F: 6.6	G: x

> Nc1nc(NC(=O)c2ccc(Cl)cc2)nn1-c1ccccc1
  A: 12	B: -12	C: 2438	D: 3	E: 8	F: 6.6	G: 8

> OC1(c2ccc3ccccc3c2)CCN(Cc2ccccc2)C1 (configuration not stated)
  A: -13	B: -4	C: 5333	D: x	E: x	F: -0.2	G: -1

> Cc1cc2c(s1)NC(=O)CN=C2c1cccs1
  A: -12	B: 0	C: 19677*	D: 19	E: 21	F: 6.8	G: -7

> O=C(CSc1nc2ccccc2c(=O)[nH]1)N1CCN(S(=O)(=O)c2ccccc2)CC1
  A: x	B: 0	C: 10212	D: 5	E: 5	F: -0.1	G: 13

> Cc1ccc(CNS(=O)(=O)c2c(C)[nH]c(=O)[nH]c2=O)cc1
  A: -19	B: 7	C: 3449	D: 1	E: 8	F: 5.3	G: 7

> COCCCNC(CC(=O)Nc1ccc(OC)cc1OC)C(=O)O (configuration not stated)
  A: 0	B: 0	C: 11108	D: 7	E: 5	F: 8.5	G: 14

> CC(C)CC(OC(=O)CC1Sc2ccccc2NC1=O)C(=O)NC1CCCC1 (configuration not stated)
  A: -20	B: 13	C: 4041	D: 2	E: -7	F: 2.9	G: 3

> O=C(O)c1ccccc1N1C(=O)C2C3c4ccccc4C(Br)(c4ccccc43)C2C1=O (configuration not stated)
  A: -28	B: 2	C: 4182	D: 1	E: 8	F: 13	G: -13

No enrichment for hits; about 4% have a hit in one of these screens.
